Screening results deposited in PubChem by ICCB-Longwood Screening Facility, Harvard Medical School.
GIV Gai3 FP: GIV-Galpha-i interaction inhibition. P08753. Galpha-i3/FITC-GIV peptide fluorescence polarization, 90 min; hits give low values; scaled: aluminum fluoride 0%, vehicle 100%. percent of control (FP), % (no concentration beside the values). 210,000 compounds, 0.42% hits. AID 1224905;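 active = replicate mean at 85% of control or lower, very high polarization wells dropped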;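 also: wells of about 15 µL received 100 nL stock; the first replicate is given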
Target sequence (P08753 whole entry, looked up): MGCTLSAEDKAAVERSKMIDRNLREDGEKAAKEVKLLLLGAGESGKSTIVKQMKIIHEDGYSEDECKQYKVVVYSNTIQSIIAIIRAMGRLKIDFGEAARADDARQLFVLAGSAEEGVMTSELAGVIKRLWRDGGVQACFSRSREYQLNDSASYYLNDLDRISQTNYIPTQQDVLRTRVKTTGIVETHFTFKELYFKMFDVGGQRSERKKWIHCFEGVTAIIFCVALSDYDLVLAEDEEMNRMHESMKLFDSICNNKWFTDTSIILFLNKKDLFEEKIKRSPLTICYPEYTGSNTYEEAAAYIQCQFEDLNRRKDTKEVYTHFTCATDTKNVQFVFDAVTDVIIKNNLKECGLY
* hit, by the source's call. The list is partial. The share of hits here may be higher or lower than overall.

| GIV Gai3 FP | Structure |
| --- | --- |
| 108 | CCn1nc(C)c(CCNC(=O)Cn2c(=O)c(=O)n(C)c3ncccc32)c1C |
| 98 | CS(=O)(=O)Nc1ccc(-c2noc(-c3cnccn3)n2)cc1 |
| 117 | CN(C)c1ccc(/C=C(\NC(=O)c2ccccc2)C(=O)N/N=C/c2ccc([N+](=O)[O-])s2)cc1 |
| 101 | Cn1c2c(c(=O)n(C)c1=O)C(c1cc([N+](=O)[O-])ccc1O)C1C(=O)c3ccccc3C1=N2 (configuration not stated) |
| 124 | Cc1cccc(Oc2cc(Oc3cccc(C)c3)c3noc4c3c2C(=O)c2ccccc2-4)c1 |
| 107 | CC(C)C(=O)Nc1cc(-c2ccccc2F)nn1-c1ccccc1 |
| 106 | Cc1cccc(C)c1-n1nnnc1C1(N(C)C)CCCC1 |
| 104 | Cc1ccc(C(=O)N/C(=C\c2ccc(Cl)cc2)C(=O)NCc2ccco2)cc1 |
| 105 | N#CC1=CN(c2cc(F)ccc2F)c2cc(F)ccc2S1(=O)=O |
| 104 | COc1cc(Br)c(C2Nc3ccc4ccccc4c3C3=C2C(=O)CC(C)(C)C3)cc1OC (configuration not stated) |
| 99 | CC(C)NC(=O)c1ccc2c(=O)n(CCc3ccccc3)c(SCc3cccc(F)c3)nc2c1 |
| 117 | O=C(NCc1ccc2c(c1)OCO2)c1ccc(Cn2c(=S)[nH]c3ccc(Br)cc3c2=O)cc1 |
| 99 | COc1cc(C2Nc3ccc(F)cc3[C@H]3OCCC[C@@H]23)cc(I)c1OC (some centres not stated) |
| 109 | N#CC1=C(N)n2c(s/c(=C\c3ccc(Cl)cc3)c2=O)=C(C#N)C1c1ccc(Cl)cc1 (configuration not stated) |
| 111 | Cc1ccc(/C(O)=C2\C(=N)N(c3ccccc3)C3=C(C(=O)CCC3)C2c2ccccc2)cc1 (configuration not stated) |
| 105 | O=C(NCc1ccc(Br)cc1)C1CCN(c2ncnc3c2oc2ccccc23)CC1 |
| 107 | O=C(NCc1ccc(F)cc1)C1CCCN(c2ccncc2)C1 (configuration not stated) |
| 101 | CC(C)CNC(=O)N1CCC(N2CCN(Cc3cccc(F)c3)C(=O)C2=O)CC1 |
| 106 | Cc1ccccc1N/C(SCc1cccc([N+](=O)[O-])c1)=C(/C#N)C(N)=O |
| 97 | CCc1onc(C)c1C1CCCN1C(=O)c1c(C)noc1C (configuration not stated) |
| 103 | CNC(=O)c1ccc(-c2nc3cc(NS(=O)(=O)c4ccccc4F)ccc3n2C)cc1 |
| 100 | CCOc1ccc(-c2noc(CSc3nc4cc5c(cc4c(=O)n3CC)OCO5)n2)cc1 |
| 107 | COC(=O)C1=CN(Cc2ccc(F)cc2)C=C(C(=O)OC)C1c1ccc(OCc2ccccc2)c(OC)c1 |
| 110 | Cn1c(Br)nc2c1c(=O)n(Cc1ccccc1F)c(=O)n2C |
| 102 | COc1cc(C2N(Cc3ccccc3)CCCN2Cc2ccccc2)c([N+](=O)[O-])cc1OC |
| 106 | Clc1ccc2c(c1)C1CC(c3cccnc3)=NN1C1(CCCCC1)O2 (configuration not stated) |
| 100 | Cc1ccc(CNS(=O)(=O)c2cc(-c3nnc(C4CC4)o3)cs2)o1 |
| 101 | CCOC(=O)C1=NN(c2ccc(C)cc2)C2(S1)SC(c1ccc(Cl)cc1)(c1ccc(Cl)cc1)c1ccccc12 (configuration not stated) |
| 120 | CCOc1ccc(NC(=O)CSc2nc3ccccc3c(=O)n2-c2ccc(C(=O)N3CCOCC3)cc2)cc1 |
| 106 | Cn1nc(-c2nc(C3CC3)no2)c2c1CCN(S(=O)(=O)c1ccccc1)C2 |
| 104 | CC(C)(C)C1CCC2(CC1)NC(=S)N(c1ccc(Cl)cc1)N2 (configuration not stated) |
| 101 | CCOC(=O)c1sc2nc(CC(=O)OC)nc(NCC3CCCO3)c2c1C (configuration not stated) |
| 100 | CCOC(=O)C1=C(C)N=c2s/c(=C/c3cc([N+](=O)[O-])ccc3N3CCN(C)CC3)c(=O)n2C1c1ccc(F)cc1 (configuration not stated) |
| 120 | O=C(Nc1sc2c(c1-c1nc3ccccc3s1)CCCC2)c1ccc(Cl)s1 |
| 98 | CC(Oc1ccc(Cl)cc1Cl)c1nc(-c2ccc(NC(=O)c3ccco3)cc2)no1 (configuration not stated) |
| 105 | N#Cc1c(SCC(=O)Nc2ccc(Cl)cc2)nc2c(c1-c1ccco1)CCCC2 |
| 111 | COc1ccc(-c2cn(/N=C/c3ccc(Cl)cc3Cl)c(NC(=O)Nc3ccccc3)n2)cc1 |
| 121 | NS(=O)(=O)c1ccc(CCNC(=O)CSc2nc(NCC3CCCO3)c3ccccc3n2)cc1 (configuration not stated) |
| 98 | CCOCCCNC(=O)C1CCN(c2cc(Sc3cc(C)ccc3C)ncn2)CC1 |
| 108 | CCCCNC(=O)N(O)C1N(CCN2CCOCC2)C(=S)SC1(C)C (configuration not stated) |
| 104 | COc1ccc(NS(=O)(=O)c2cc(-c3ccc(=O)[nH]n3)cc(C)c2C)cc1Cl |
| 107 | COc1ccc(C2=C(Cl)C=C(c3ccccc3C)c3ccccc3O2)cc1OC |
| 117 | CCCc1cc(C2CCCN2Cc2ccc(OC)cc2OC)no1 (configuration not stated) |
| 105 | CCN(CC)S(=O)(=O)N1CCC(C(=O)NCc2ccc(OC)cc2)CC1 |
| 113 | COc1ccc(C2SCCN2S(=O)(=O)c2cccc(C)c2)cc1OC (configuration not stated) |
| 119 | CCOc1ccc(N2C(=O)/C(=C\C3C(=O)N(c4ccccc4)N=C3C)C(=O)NC2=S)cc1 (configuration not stated) |
| 109 | Cn1c(=O)c2c(ncn2Cc2nc(N)nc(N3CCCCC3)n2)n(C)c1=O |
| 111 | O=C1C2N=NN(c3ccc(Cl)cc3)C2C(=O)N1c1cccc(F)c1 (configuration not stated) |
| 100 | CCN1CCN(c2ncnc3sc(C(=O)Nc4ccccc4OC)c(C)c23)CC1 |
| 107 | O=C(Nc1ccc(Oc2ccc3ccccc3c2Br)c(Cl)c1)c1cc(Cl)cc(Cl)c1O |
| 108 | O=C(COC(=O)c1ccc2c3c1C1C=CCC1CN3CC1CC=CC21)c1ccc(Br)cc1 (configuration not stated) |
| 115 | CCOc1ccc(S(=O)(=O)Nc2cc3c(C(=O)OC)c(C(C)(C)C)oc3c3ccccc23)cc1 |
| 107 | Nc1cccc(-c2cnc3ccccc3n2)c1 |
| 104 | COc1ccc(OC)c(NC(=O)N2CCC(c3cc4n(n3)CCCNC4=O)CC2)c1 |
| 115 | Cc1ccccc1N1OC2C(=O)N(Cc3ccccc3)C(=O)C2C1c1ccc(F)cc1 (configuration not stated) |
| 116 | COc1cc(C2C(N3C(=O)c4ccc([N+](=O)[O-])cc4C3=O)C(=O)N2c2ccc(Cl)c(Cl)c2)cc(OC)c1OC (configuration not stated) |
| 109 | CC(C)CCNC(=O)C1CCCN(c2cc(=O)n(C)c(=O)n2C)C1 (configuration not stated) |
| 102 | O=S1(=O)N=C(SCc2ccc(Br)cc2)Nc2ccccc21 |
| 105 | CC(C)CNC(=O)N1CCN(Cc2nc3cccnc3n2-c2ccc(F)cc2)CC1 |
| 109 | CCOc1ccccc1N/C(SCc1cccc([N+](=O)[O-])c1)=C(/C#N)C(=O)NCc1cccs1 |

Part of the list above in order of heavy-atom count, largest number first.
| GIV Gai3 FP | Structure |
| --- | --- |
| 100 | CCN1CCN(c2ncnc3sc(C(=O)Nc4ccccc4OC)c(C)c23)CC1 |
| 108 | CCCCNC(=O)N(O)C1N(CCN2CCOCC2)C(=S)SC1(C)C (configuration not stated) |
| 107 | Nc1cccc(-c2cnc3ccccc3n2)c1 |

Next section:
| GIV Gai3 FP | Structure |
| --- | --- |
| 117 | CCOC(=O)/C(=C\N1CCc2ccccc2C1)C(C)=O |
| 109 | NS(=O)(=O)c1ccc(CCNC(=O)c2ccc(Cn3c(=S)[nH]c4ccc(Br)cc4c3=O)cc2)cc1 |
| 102 | CC(=O)C1=NN(c2cccc(Cl)c2C)C2(S1)c1ccccc1C(c1ccccc1)=NN2c1ccccc1 (configuration not stated) |
| 104 | CN(CCc1noc(C(=O)NCc2ccc(Cl)cc2)n1)C(=O)Nc1ccccc1Cl |
| 108 | O=C(c1cc2cc(Cl)ccc2[nH]1)N1CCN(C(=O)C2CCC2)CC1 |
| 104 | Cc1cc(C)c(C)c(S(=O)(=O)Nc2ccc(-c3nnc(-c4ccccc4)o3)cc2)c1 |
| 104 | CC(C)c1cc(C2CCCN2S(=O)(=O)c2ccc(Br)s2)no1 (configuration not stated) |
| 102 | Cc1cc(C)n(-c2nc(N3CCOCC3)nc(C)c2[N+](=O)[O-])n1 |
| 104 | CCOCCn1cnc2sc(C(=O)N3CCN(C(=O)OCC)CC3)c(C)c2c1=O |
| 118 | CCc1nc(SCc2noc(CCC(=O)Nc3ccc4c(c3)Cc3ccccc3-4)n2)n[nH]1 |
| 107 | CCN(CC)S(=O)(=O)c1ccc2c(c1)cc(C(=O)NCCc1cnc[nH]1)n2C |
| 106 | COc1cccc(/C=N/c2oc(-c3ccccc3)c(-c3ccccc3)c2C#N)c1 |
| 114 | O=C(CSc1nc2ccccc2c(=O)n1CC1COc2ccccc2O1)c1ccccc1 (configuration not stated) |
| 101 | CCOc1ccc(NC(=O)N(C)Cc2nc3cc(C(=O)N4CCCC4)ccc3n2C)cc1 |
| 106 | O=[N+]([O-])c1ccc(N2CCN(c3ncnc4c3cnn4-c3ccc(Cl)cc3)CC2)cc1 |
| 108 | COc1ccc(CNc2ccc(C(=O)N3CCN(c4ccccc4)CC3)cc2S(=O)(=O)Nc2cccc(OC)c2)cc1 |
| 101 | O=c1c2cnn(-c3ccc(F)cc3)c2ncn1Cc1nc(-c2ccc(Br)cc2)no1 |
| 104 | COCCCNc1c(-c2ccc(O)c(OC)c2)nc2sc3ccccc3n12 |
| 109 | COC(=O)c1sccc1NC(=O)CN1CCCN(Cc2ccccc2Cl)S1(=O)=O |
| 105 | O=C(NCCN1CCN(c2ccccc2F)CC1)C1CCN(c2nc3ccccc3[nH]2)CC1 |
| 104 | CCSc1nnc2c(S(=O)(=O)N3CCN(c4ccc(F)cc4)CC3)cccn12 |
| 105 | O=C(c1ccc(Cl)cc1)N1CCc2cc(CNS(=O)(=O)c3cccc(F)c3)ccc21 |
| 110 | CCOC(=O)c1c(NC(=O)Cn2nc(C(F)(F)F)cc2C)sc2c1CCC(C)C2 (configuration not stated) |
| 107 | O=c1c2c3c(sc2[nH]c(=S)n1-c1ccc(OC(F)F)cc1)CCC3 |
| 100 | O=C(NCCC1=CCCCC1)C1CCN(c2nn3c(=O)c4c(nc3s2)CCCC4)CC1 |
| 99 | CCOc1cccc2c1OC(c1cccc(Cl)c1)N1N=C(c3cccc(OC)c3)CC21 (configuration not stated) |
| 110 | O=[N+]([O-])c1ccccc1S(=O)(=O)n1nnc2ccccc21 |
| 113 | COc1ccc(C2=NN(C(=O)CSc3nnc(CNC(=O)Cc4ccccc4)n3C)C(c3ccc(OC)cc3)C2)cc1 (configuration not stated) |
| 117 | CCOc1ccc(-c2csc(Cc3nc(-c4ccc(Cl)cc4)no3)n2)cc1 |
| 95 | CC(=O)N1CCc2cc(-c3ccc(C(=O)NCCc4c[nH]c5ccccc45)cc3)ccc21 |
| 108 | COc1ccc(C(=O)OCCN(C2=NS(=O)(=O)c3ccccc32)c2ccccc2OC)cc1OC |
| 105 | COc1cc(-n2c(C)nc3cc(C(=O)NCc4ccco4)ccc32)cc(OC)c1OC |
| 107 | O=C1c2cc(S(=O)(=O)Oc3ccccc3)ccc2-c2ccc(S(=O)(=O)Oc3ccccc3)cc21 |
| 110 | CCCCCCCCOc1ccc(OC(=O)c2ccc(OCCCCCC)cc2)cc1 |
| 109 | CCC(C)(Nc1ccc(C)cc1)c1nnnn1C(/C=C/c1ccc(Cl)cc1Cl)C(C)(C)C (configuration not stated) |
| 99 | CCOc1cc(C2Nc3ccc(C)cc3[C@H]3OCCC[C@@H]23)cc(Br)c1OC (some centres not stated) |
| 102 | CC(C)CN1CCN(S(=O)(=O)c2ccc(-c3nnc(C4CCCC4)o3)o2)CC1 |
| 122 | COc1ccc(CCNC(=O)CCC(=O)Nc2nc(-c3cc4cccc(OC)c4oc3=O)cs2)cc1OC |
| 99 | CCn1ncc(NC(=O)c2ccc(C)cc2)c(N(C)C)c1=O |
| 105 | COc1ccc(C2(c3ccc(F)cc3)CCCCC2)cc1 |
| 99 | O=C(Nc1cccnc1)C1CCCN(S(=O)(=O)c2cc(-c3noc(C4CCCC4)n3)cs2)C1 (configuration not stated) |
| 107 | COC(=O)c1ccc(NC(=O)CSc2nnc(NC(=O)CSc3nnc(N)s3)s2)cc1 |
| 104 | COc1ccccc1-n1c(CSCC(=O)Nc2ccc3ccccc3c2)nc2ccccc2c1=O |
| 100 | CCc1nnc(-c2csc(S(=O)(=O)NC3CCCC3)c2)o1 |
| 106 | Cc1[nH]c(-c2nnc(C3CCC3)o2)c(C)c1S(=O)(=O)N1CCC(C)CC1 |
| 104 | O=C(c1nn2c(C(F)(F)F)cc(-c3ccco3)nc2c1Br)N1CCCCC1 |
| 105 | Cc1cccc(-c2cnc(Nc3cccc(C(=O)Nc4ccc5c(c4)OCO5)c3)nc2)c1 |
| 109 | COC(=O)c1ccc(C2CC(=O)Nc3c2c(C)nn3-c2nc3ccccc3[nH]2)cc1 (configuration not stated) |
| 92 | COc1ccc(OC)c(Nc2nc3nonc3nc2N2CCOCC2)c1 |
| 98 | O=C(c1ccc(SCCN2CCCCC2)nc1)N1CCN(c2ccc(Cl)cc2)CC1 |
| 107 | Cc1ccc(C(c2c(C)[nH]n(-c3ccccc3)c2=O)c2c(C)[nH]n(-c3ccccc3)c2=O)cc1 |
| 109 | CCOc1ccc(NC(=O)Cn2c3ccccc3n3c(=O)cc(-c4ccccn4)nc23)cc1 |
| 103 | Cc1ccc(S(=O)(=O)CC(=O)Nc2nc(-c3ccc4c(c3)OCO4)cs2)cc1 |
| 108 | CCn1c(N2CCCC(C(=O)NCCC3=CCCCC3)C2)cc(=O)n(C)c1=O (configuration not stated) |

A second format for part of the listing above.
> COc1ccc(C2=C(Cl)C=C(c3ccccc3C)c3ccccc3O2)cc1OC
  GIV Gai3 FP: 107

> CCCc1cc(C2CCCN2Cc2ccc(OC)cc2OC)no1 (configuration not stated)
  GIV Gai3 FP: 117

> CCN(CC)S(=O)(=O)N1CCC(C(=O)NCc2ccc(OC)cc2)CC1
  GIV Gai3 FP: 105

> COc1ccc(C2SCCN2S(=O)(=O)c2cccc(C)c2)cc1OC (configuration not stated)
  GIV Gai3 FP: 113
